# Shh pathway inh: blocks Sonic Hedgehog signaling; inhibition, % (concentration not given with the values); hit rate 2.1% among 22,000; Shh-LIGHT2 Gli-luciferase reporter, 30 h; AID 2313;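 active means replicate mean of 65% or more; inconclusive means mean lower but half the replicates past it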;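 further: pathway switched on by Shh-conditioned medium diluted 1 in 25 in low serum; 100 nL library stock added to about 40 µL; 0% = median of neutral wells and 100% = positive control level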
# YB-1 expr inh: YB-1 expression inhibition; hit rate 0.37% among 30,000; U2OS, qRT-PCR YB-1 vs CDIP delta delta Cp, 16 h; hits give high values; zero = DMSO, each unit about twofold; AID 434959; delta delta Cp (YB-1 minus CDIP) (concentration not given with the values);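 active means delta delta Cp rounded down to an integer at or above 3, about 3 SD of DMSO wells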;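 further: higher means less YB-1 transcript or more CDIP transcript relative to DMSO; stock transfer was 100 nL into about 100 µL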
# PD-1 reversal: reversal of PD-1 mediated T-cell inhibition. primary human CD4 T cells, PD-L1 beads, CellTiter-Glo 96 h. activation, % (no concentration beside the values). 29,000 tested, under 10 active;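 active means replicate mean of 50% or more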;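 further: 0% = median vehicle wells and 100% = positive control; 100 nL library stock added to about 50 µL; numbers are from one replicate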
# MITF inh: MITF inhibition | TRPM1 promoter luciferase, luminescence, 24 h | inhibition, % (test concentration not listed) | hit rate 0.28% among 37,000 | AID 2240;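 active means most replicates at 85% or more, or half of them and the mean; inconclusive means half reach 85% but not the mean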;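 further: human melanocyte line stably carrying TRPM1 promoter luciferase reporter; 0% = vehicle wells and 100% = a positive control; the first replicate is given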
# The depositor's hits bear a star; ? = inconclusive; / = not tested or not shown.
SMILES,Shh pathway inh,YB-1 expr inh,PD-1 reversal,MITF inh
C[C@@H]1CN([C@@H](C)CO)C(=O)c2cc(NC(=O)NC3CCCCC3)ccc2O[C@H]1CN(C)Cc1ccc(C(F)(F)F)cc1,14.7,-0.251,/,-1.1
C[C@H](CO)N1C[C@H](C)[C@H](CN(C)CC2CC2)Oc2ccc(NS(=O)(=O)c3cn(C)cn3)cc2C1=O,-45.7,0.361,/,-1.5
O=C(CSc1ccccn1)Nc1ccccn1,-39.6,0.459,-0.4,-55.2
Cc1ccc(N(C(C)C(=O)Nc2ccc(C(F)(F)F)cc2)S(C)(=O)=O)cc1 (stereo not drawn),/,/,1.2,-3.6
C[C@@H]1CN([C@H](C)CO)C(=O)c2cccc(NC(=O)c3cnccn3)c2O[C@H]1CN(C)S(C)(=O)=O,-12.2,-0.808,1.8,-2.9
C[C@@H]1CN([C@H](C)CO)C(=O)c2cccc(NC(=O)c3cnccn3)c2O[C@H]1CN(C)C(=O)Nc1ccc2c(c1)OCO2,-28.4,0.036,/,-21.5
O=C(OCC1OC(Oc2ccc(O)cc2COC(=O)C2(O)C(O)CCC2(O)C(=O)O)C(O)C(O)C1O)c1ccccc1 (stereo not drawn),-25.9,0.000326,2.9,-4.7
Cc1noc(C)c1NC(=O)N(C)C[C@H]1Oc2ccc(NC(=O)NC3CCCCC3)cc2C(=O)N([C@H](C)CO)C[C@H]1C,-39.9,0.18,0.7,2.6
C[C@@H]1CN([C@@H](C)CO)C(=O)c2cccc(NC(=O)Nc3ccc(C(F)(F)F)cc3)c2O[C@H]1CN(C)S(=O)(=O)c1ccccc1,-7.6,0.117,/,3.7
COc1cccc(-n2nnnc2SCC(=O)Nc2ccccc2OC)c1,/,/,-3.5,-20.1
Cc1cc(OCC(=O)Nc2ccccc2C(=O)Nc2ccccc2)ccc1Cl,/,/,3.7,-3.5
COc1ccc(S(=O)(=O)N(C)C[C@H]2Oc3c(NS(=O)(=O)c4ccccc4)cccc3C(=O)N([C@H](C)CO)C[C@H]2C)cc1,-2.3,0.864,-0.7,5.2
Cn1c(SCC(=O)Nc2ccc(C(=O)O)cc2)nnc1-c1ccncc1,/,/,0.0,-3.3
C[C@H]1CN([C@@H](C)CO)C(=O)c2cccc(NC(=O)C3CC3)c2O[C@H]1CN(C)Cc1ccc(C(=O)Nc2ccccc2N)cc1,/,-0.229,-1.9,13.8
C[C@H]1CN([C@@H](C)CO)C(=O)Cc2cc(NC(=O)NC3CCCCC3)ccc2O[C@H]1CN(C)Cc1ccccc1,?,0.574,-0.3,-5.5
CC(C)NC(=O)N(C)C[C@H]1Oc2c(NS(=O)(=O)c3cccs3)cccc2C(=O)N([C@@H](C)CO)C[C@@H]1C,-23.4,0.027,/,-0.4
Cc1cccc(NC(c2ccccc2[N+](=O)[O-])c2ccc3ccc(C)nc3c2O)n1 (stereo not drawn),/,/,-13.1,53.0
C[C@H]1CN([C@@H](C)CO)C(=O)c2cc(NS(=O)(=O)c3cccs3)ccc2O[C@@H]1CN(C)S(C)(=O)=O,/,-0.119,2.6,-0.4
CC(C)(C)NC(=O)C[n+]1cccc(/C=N/O)c1,-18.1,0.0535,0.9,-9.8
COc1cc2ncnc(Nc3ccc(Oc4ccccc4)cc3)c2cc1OC,18.5,0.85,-3.0,6.7
O=C(CSc1nnc(-c2ccc(Br)cc2)o1)Nc1cc(C(F)(F)F)ccc1Cl,/,/,-1.7,30.3
CC(=O)c1c(C)cc(C)c(CSc2nnc(-c3ccco3)o2)c1C,/,/,1.0,-12.7
C[C@@H]1CN([C@H](C)CO)C(=O)Cc2cc(NC(=O)CCCCCC(=O)Nc3ccccc3N)ccc2O[C@H]1CN(C)Cc1ccc(Cl)c(Cl)c1,/,-0.107,-1.1,9.6
C[C@@H]1CN([C@H](C)CO)C(=O)c2cc(NS(C)(=O)=O)ccc2O[C@H]1CN(C)S(=O)(=O)c1ccc(F)cc1,3.5,-0.0285,-0.6,-3.8
Cc1cc(OCC(=O)Nc2cccc(-c3nnc(-c4ccccc4)o3)c2)cc(C)c1Cl,/,/,1.6,-35.0

# Single entries from the results shown:
# Reading of C[C@@H]1CN([C@H](C)CO)C(=O)c2cccc(NC(=O)c3cnccn3)c2O[C@H]1CN(C)S(C)(=O)=O under PD-1 reversal: 1.8
# Reading of COc1cc2ncnc(Nc3ccc(Oc4ccccc4)cc3)c2cc1OC under MITF inh: 6.7
# Reading of C[C@H]1CN([C@@H](C)CO)C(=O)Cc2cc(NC(=O)NC3CCCCC3)ccc2O[C@H]1CN(C)Cc1ccccc1 under MITF inh: -5.5

# New compounds follow.
SMILES,Shh pathway inh,YB-1 expr inh,PD-1 reversal,MITF inh
O=C(NCc1ccccc1)NC1CCS(=O)(=O)C1 (stereo not drawn),-19.5,-0.0736,-0.5,-11.7
COc1ccc(NC(=O)N(C)C[C@H]2OCCCC[C@@H](C)Oc3ccc(NC(=O)Nc4ccccc4)cc3C(=O)N([C@H](C)CO)C[C@@H]2C)cc1,-21.1,0.0302,-0.5,10.9
C[C@@H]1CCCCO[C@@H](CN(C)S(=O)(=O)c2ccccc2)[C@@H](C)CN([C@H](C)CO)C(=O)c2cc(NC(=O)C3CCCCC3)ccc2O1,-9.9,-0.195,0.3,22.5
OCCCc1n[nH]c(=S)n1-c1ccccc1,/,/,1.5,-15.8
Cc1ccc(NC(=O)CSc2nc3ccccc3c(=O)n2-c2cccc(C(F)(F)F)c2)c(C)c1,/,/,-5.5,0.3
O=S(=O)(/N=C(\Oc1ccccc1)c1ccccc1)c1ccc(Br)cc1,-25.9,0.0283,4.2,-14.6
C[C@@H]1CN([C@H](C)CO)C(=O)Cc2cc(NS(=O)(=O)c3ccc(F)cc3)ccc2O[C@H]1CN(C)C(=O)Nc1ccc(C(F)(F)F)cc1,/,-0.646,/,-7.2
O=C(COc1cc(Cl)c(Cl)cc1Cl)Nc1ncn[nH]1,/,/,0.0,-35.4
C[C@H](CO)N1C[C@H](C)[C@H](CN(C)C(=O)Nc2ccc(F)cc2)Oc2c(NC(=O)NC3CCCCC3)cccc2C1=O,?,-0.111,-0.3,7.9
C[C@H](CO)N1C[C@H](C)[C@@H](CN(C)Cc2ccc(-c3ccccc3)cc2)Oc2ccc(NC(=O)Cc3ccccc3)cc2C1=O,/,-0.00954,-4.8,-5.6
C[C@@H]1CN([C@H](C)CO)C(=O)c2cc(NC(=O)Nc3ccccc3)ccc2O[C@H]1CN(C)Cc1ccc(C(F)(F)F)cc1,22.9,0.493,-8.9,32.5
Cc1noc(C)c1S(=O)(=O)Nc1ccc2c(c1)C(=O)N([C@@H](C)CO)C[C@H](C)[C@H](CN(C)S(=O)(=O)c1ccc(F)cc1)O2,/,-0.196,0.0,-15.6
COc1ccc(CN(C)C[C@H]2Oc3c(NC(=O)Nc4ccc(F)cc4)cccc3C(=O)N([C@H](C)CO)C[C@@H]2C)cc1,-3.5,0.0599,-1.3,1.9
C[C@H]1CN([C@@H](C)CO)C(=O)c2cccc(NC(=O)C3CCCCC3)c2O[C@@H]1CN(C)S(C)(=O)=O,-26.6,0.34,1.0,-7.6
C[C@@H]1CN([C@H](C)CO)C(=O)c2cc(NS(=O)(=O)c3cn(C)cn3)ccc2O[C@@H]1CN(C)S(=O)(=O)c1ccc(F)cc1,/,0.28,2.3,6.6
C=CCN1C(=O)NC(C)(C)C1=O,-4.4,-0.501,5.6,1.1
Cc1noc(C)c1NC(=O)Nc1ccc2c(c1)CC(=O)N([C@@H](C)CO)C[C@H](C)[C@@H](CN(C)Cc1ccc(Oc3ccccc3)cc1)O2,13.2,0.00744,0.9,-8.2
CC(=O)Nc1ccc(NC(=O)CCCN2C(=O)c3ccccc3C2=O)cc1,/,/,0.7,-20.5
Cc1cc(OCC(=O)Nc2ccc(-c3nc4ccccc4s3)c(O)c2)ccc1Cl,/,/,2.2,-45.9
COc1cc(O)cc(C2=C(C)CC(O)C2=O)c1 (stereo not drawn),-7.0,-0.418,1.8,5.0
C[C@H]1CN([C@@H](C)CO)C(=O)c2cc(NS(=O)(=O)c3ccc(Cl)cc3)ccc2O[C@H]1CN(C)Cc1ccncc1,-13.2,-0.0535,0.9,-20.5
COc1ccc(S(=O)(=O)N(C)C[C@@H]2Oc3ccc(NC(=O)NC(C)C)cc3CC(=O)N([C@H](C)CO)C[C@H]2C)cc1,-3.7,0.278,-0.3,3.5
CC(=O)Nc1ccccc1NC(=O)COc1ccc2ccccc2c1Br,/,/,-1.4,38.4
Cc1ccc([N+](=O)[O-])c(OCCCSc2ncccn2)c1,/,/,3.1,-75.7
O=C(O)C1CCCCC1C(=O)NCCc1ccncc1 (stereo not drawn),/,/,0.4,-2.0
SMILES,Shh pathway inh,YB-1 expr inh,PD-1 reversal,MITF inh
O=C(O)COc1ccc(C(=O)Nc2ccc(F)cc2)cc1,/,/,-0.3,-2.8
COc1ccc(NC(=O)Nc2ccc3c(c2)C(=O)N([C@H](C)CO)C[C@@H](C)[C@@H](CN(C)C(=O)Nc2ccc(C(F)(F)F)cc2)O3)cc1,20.4,-0.543,/,13.8
C[C@@H]1CN([C@@H](C)CO)C(=O)c2cccc(NC(=O)c3cnccn3)c2O[C@@H]1CN(C)C(=O)Nc1ccc(F)cc1,-28.4,-0.0146,0.1,-6.8
CCn1c(SCC(=O)N2CCN(c3ccccc3)CC2)nnc1-c1ccccc1O,/,/,1.5,66.4
C[C@@H]1CN([C@@H](C)CO)C(=O)c2cc(NS(=O)(=O)c3ccc(F)cc3)ccc2O[C@@H]1CN(C)S(=O)(=O)c1ccccc1,2.6,0.172,-1.2,14.6
C[C@H]1CN([C@@H](C)CO)C(=O)Cc2cc(NS(=O)(=O)c3cccs3)ccc2O[C@@H]1CN(C)S(=O)(=O)c1ccc(F)cc1,-37.6,0.0158,/,3.8
Cc1ccc(S(=O)(=O)N(C)CC(=O)Nc2cccc(Cl)c2)cc1,/,/,-0.5,0.5
O=C(Cn1cnc([N+](=O)[O-])n1)Nc1c(Cl)cccc1Cl,/,/,3.5,2.9
C[C@@H]1CN([C@@H](C)CO)C(=O)c2cc(NC(=O)C3CCCCC3)ccc2O[C@@H]1CN(C)S(=O)(=O)c1ccc(Cl)cc1,0.8,0.595,1.1,-0.7
COc1ccc(NC(=O)Nc2ccc3c(c2)CC(=O)N([C@@H](C)CO)C[C@H](C)[C@@H](CN(C)Cc2ccccc2)O3)cc1,5.5,0.411,1.8,-0.3
Cc1nc2sccn2c(=O)c1CCN1CCC(=C(c2ccc(F)cc2)c2ccc(F)cc2)CC1,18.6,-0.326,/,11.1
C[C@@H]1CCCCO[C@H](CN(C)C(=O)Nc2ccc(F)cc2)[C@@H](C)CN([C@H](C)CO)C(=O)c2cc(NS(=O)(=O)c3ccc(Cl)cc3)ccc2O1,26.1,0.204,/,34.8
CCOC(=O)c1ccc(NC(=O)CN2C(=O)C3C4C=CC(C5CC45)C3C2=O)cc1 (stereo not drawn),/,/,2.1,-15.9
C[C@H]1CN([C@@H](C)CO)C(=O)c2cc(NC(=O)NC3CCCCC3)ccc2O[C@@H]1CN(C)C(=O)NC1CCCCC1,/,-0.126,0.8,-2.2
COc1ccc(S(=O)(=O)N(C)C[C@H]2Oc3ccc(NC(=O)Nc4ccc(C(F)(F)F)cc4)cc3C(=O)N([C@@H](C)CO)C[C@@H]2C)cc1,/,-0.405,-2.7,-5.6
O=C(CC1(O)C(=O)Nc2ccc(F)cc21)c1ccco1 (stereo not drawn),/,/,1.4,27.5
C[C@@H]1CN([C@@H](C)CO)C(=O)c2cccc(NS(=O)(=O)c3ccc(F)cc3)c2O[C@H]1CN(C)Cc1ccc(C(=O)Nc2ccccc2N)cc1,/,0.273,-0.5,-2.2
CC(=O)Nc1ccc(NC(=O)c2cccc(C(=O)OC(C)C)n2)cc1,/,-0.0752,0.0,-15.6
Cc1ccc(S(=O)(=O)N(C)C[C@H]2Oc3c(NS(=O)(=O)c4cn(C)cn4)cccc3C(=O)N([C@@H](C)CO)C[C@H]2C)cc1,-33.9,0.133,1.2,-5.8
CC(C)NC(=O)Nc1cccc2c1O[C@@H](CN(C)C(=O)Nc1ccc3c(c1)OCO3)[C@@H](C)CN([C@H](C)CO)C2=O,-46.0,0.273,1.2,1.0
C[C@H]1CN([C@@H](C)CO)C(=O)c2cccc(NC(=O)Nc3cccc4ccccc34)c2O[C@H]1CN(C)Cc1ccc(Oc2ccccc2)cc1,-29.6,-0.778,-3.4,17.0
C[C@H](CO)N1C[C@H](C)[C@H](CN(C)Cc2ccc(C(F)(F)F)cc2)Oc2c(cccc2N(C)C)C1=O,4.3,0.474,-1.3,-5.2
Cc1ccc2nc(-c3cccnc3)cc(C(=O)Nc3ccc(CC(=O)O)cc3)c2c1,/,/,3.2,-1.8

# Profiles from above:
# CC(=O)Nc1ccc(NC(=O)c2cccc(C(=O)OC(C)C)n2)cc1 is entered as Shh pathway inh: /; YB-1 expr inh: -0.0752; PD-1 reversal: 0.0; MITF inh: -15.6
# CC(C)NC(=O)Nc1cccc2c1O[C@@H](CN(C)C(=O)Nc1ccc3c(c1)OCO3)[C@@H](C)CN([C@H](C)CO)C2=O is entered as Shh pathway inh: -46.0; YB-1 expr inh: 0.273; PD-1 reversal: 1.2; MITF inh: 1.0

# Entries above with an NH in an aromatic ring (2):
SMILES,Shh pathway inh,YB-1 expr inh,PD-1 reversal,MITF inh
OCCCc1n[nH]c(=S)n1-c1ccccc1,/,/,1.5,-15.8
O=C(COc1cc(Cl)c(Cl)cc1Cl)Nc1ncn[nH]1,/,/,0.0,-35.4

# A portion of the library, so the mix of outcomes need not match the whole.
